Mtb growth = Mycobacterium tuberculosis H37Rv growth inhibition, cell based, confirmatory dose response (AID 1949); inhibition, % at 10 µg/mL; hits with a dose series show IC50 in µg/mL; most inactive calls were filed without a number and no value below 0 was filed; actives 1.6% (n = 100,000);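 active = confirmed in a dose series; inconclusive = about 50% or more but not retested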;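 note: bacteria grown 7 days with compound before Alamar blue readout; 0% = untreated bacteria and 100% = reference antibiotic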
* marks the source's active call; other numbers are inactive results; i = inactive; u = inconclusive. The list is partial; the hit share may differ from the screen's.

SMILES	Mtb growth
CC(c1ccccc1)n1c(-c2ccc(C(C)(C)C)cc2)n[nH]c1=S (stereo not given)	i
COc1cc(Cl)ccc1S(=O)(=O)Nc1ccc2ccccc2c1	i
N#Cc1nc(-c2ccc(Cl)cc2)oc1N1CCN(c2ccccc2)CC1	2%
COc1cc2c(cc1NC(=O)COc1ccc(Br)cc1C)oc1ccccc12	1%
O=C1CC(N2CCC(c3nc4ccccc4[nH]3)CC2)C(=O)N1c1cccc(F)c1 (stereo not given)	i
N#Cc1cc2n(c1N)-c1ccccc1C2=O	2%
COc1ccc(C2NN(Cc3ccccc3)C3C(=O)N(C)C(=O)C23)cc1 (stereo not given)	i
O=S(=O)(Nc1cccnc1)c1cccc(S(=O)(=O)c2ccc(Cl)c(Cl)c2)c1	i
COC(=O)C1=C(C)OC(N)=C(C#N)C12C(=O)Nc1ccc(Cl)cc12 (stereo not given)	i
CC(NC(=O)C(=S)N1CCOCC1)c1ccccc1 (stereo not given)	i
CCCCNS(=O)(=O)c1ccc(NC(=O)CC(C)c2ccccc2)cc1 (stereo not given)	i
CCC(C)(C)C1CCc2nc(N)c(C#N)c(-c3ccc(OC)cc3)c2C1 (stereo not given)	i
Nc1cc(=O)[nH]c(SCC(=O)Nc2nc3ccc([N+](=O)[O-])cc3s2)n1	i
COc1ccc(NC(=O)CN(Cc2ccccc2)S(=O)(=O)c2ccc(F)cc2)cc1OC	6%
Cn1cccc1CNCc1ccncc1	i
CCOc1ccccc1NC(=O)CN(C)S(=O)(=O)c1ccc(OC)c(OC)c1	i
CS(=O)(=O)N(CC(=O)Nc1cc(Cl)cc(Cl)c1)c1cccc([N+](=O)[O-])c1	i
COc1ccc(Cc2nnc(NC(=O)CC(C)(C)C)s2)cc1	i
CCOc1ccc2nc(NC(=O)CSc3nnc(N)s3)sc2c1	i
Cc1ccc(-c2nnc3c4c5c(sc4ncn23)CCCC5)cc1	i
COC(=O)c1sc2cc(NC(=S)Nc3ccc(OCc4ccccc4)cc3)ccc2c1Cl	i
COc1ccc([N+](=O)[O-])cc1NC(=O)C(C)N1C(=O)C2CC=C(Cl)CC2C1=O (stereo not given)	3%
Cc1cccc(S(=O)(=O)Nc2cccc(Cl)c2)c1	4%
CCC(C)(C)NC(=O)c1ccc2c(c1)OCO2	i
CCOc1ccc(NC(=S)Nc2ccccc2C2CC2)cc1	u
Fc1ccc(Nc2nnc(-c3cccnc3)s2)cc1Cl	i
CC(=O)c1cccc(NC(=O)NCc2ccccn2)c1	i
CCOC(=O)c1c(NC(=S)Nc2cnccn2)sc(C)c1-c1ccccc1	u
CCn1cc(NC(=S)Nc2sc3c(c2C(=O)OC)CCC(C)C3)c(C(N)=O)n1 (stereo not given)	i
CC(C)C(=O)Nc1cccc(NC(=S)NC(=O)c2ccc(C(C)(C)C)cc2)c1	i
CCCCOc1ccccc1NC(=O)C(Cc1ccccc1)N1C(=O)c2ccccc2C1=O (stereo not given)	i
Cc1ccccc1Cn1nc(C)c(NC(=S)Nc2cccc3ccccc23)c1C	i
Cc1cc(C)cc(OCC(=O)N2CCN(C(=O)COc3cc(C)cc(C)c3)CC2)c1	i
CCOc1cc(/C=C/C(=O)c2ccccc2)ccc1OCc1ccccc1Cl	i
O=C(CNC(=O)c1ccccc1)NCC(=O)OCc1ccc(Cl)cc1	6%
COC(=O)c1cccc(NC(=O)CN(c2cccc(F)c2)S(C)(=O)=O)c1C	i
COc1ccc(CNC(=O)CCc2ccc(S(=O)(=O)NC(C)c3ccccc3)cc2)cc1 (stereo not given)	i
Cc1ccc(C(=O)O)cc1-n1cccc1	i
Cc1nc(CSc2nc3[nH]ncc3c(=O)n2-c2ccccc2)cs1	i
Cc1ccc(S(=O)(=O)N(CC(=O)N2CCC(C)CC2)c2cccc(C(F)(F)F)c2)cc1	3%
Cc1c(OC(=O)c2ccccc2Cl)ccc2c1CCCC2	2.5µg/mL*
Cc1cc(C)c(S(=O)(=O)N(CC(=O)Nc2c(C)cccc2C)Cc2ccccc2)c(C)c1	i
CNS(=O)(=O)c1ccc2[nH]c(=O)[nH]c2c1	i
COCCCN1C(=O)c2ccc(C(=O)Nc3ccc(OC)cc3)cc2C1=O	3%
Cc1sc2ncnc(N3CCN(C(=O)c4ccco4)CC3)c2c1C	i
CCn1c2ccccc2c2cc(NC(=O)c3c(-c4ccccc4Cl)noc3C)ccc21	5%
O=C(CSCc1ccccc1Cl)Nc1ccc2c(c1)OCCO2	4%
O=S(=O)(NCc1ccccc1)c1cccc(S(=O)(=O)NCc2ccccc2)c1	i
COC(=O)c1c(-c2ccncc2)csc1NC(=O)c1oc2ccccc2c1C	3%
C=CCNC(=O)c1c(NC(=O)c2sc3cc(C)ccc3c2Cl)sc2c1CCCC2	i
Continuation.
SMILES	Mtb growth
O=C(Nc1ccccc1[N+](=O)[O-])c1ccc(C(=O)N(C2CCCCC2)C2CCCCC2)cc1	i
COC(=O)CC1C(=O)NCCN1C(=O)Nc1ccc(Cl)cc1 (stereo not given)	i
OCCNCCOCCOc1ccc(I)cc1	i
COC(=O)COc1cc(OCC(=O)OC)c2c(C)c(Cl)c(=O)oc2c1	1%
CCn1c(CC(=O)Nc2cccc(OC)c2)nnc1SCC(=O)Nc1ccc(I)cc1C(C)C	i
Cc1ccc(SCC(=O)N2CCN(c3cccc(Cl)c3)CC2)cc1	1%
Fc1ccc(-c2ncc3ccccn23)cc1	0%
COc1ccc(OCC(=O)N2CCCC2)cc1	i
Cc1ccc2oc(-c3ccc(C)c(NC(=O)CC(C)C)c3)nc2c1	i
COc1ccc(-c2n[nH]c(C(F)(F)F)c2-c2ccccc2Cl)c(O)c1OC	5%
CCc1ccc(CNc2ccc(N3CCN(C(C)=O)CC3)cc2)cc1	i
COc1ccc(NC(=O)COc2cc(C)c(Br)c(C)c2)cc1Cl	i
c1ccc(-c2csc3nnc(SCc4ccc5c(c4)OCCO5)n23)cc1	5%
Cc1cccc(C)c1NC(=O)CCCN1C(=O)c2ccccc2C1=O	1%
O=C(CSc1nnc(-c2ccc([N+](=O)[O-])cc2)n1-c1ccccc1)NC1CCCCC1	i
CCOc1ccccc1C1CC(=O)C2=C(C1)Nc1ccccc1NC2c1ccc(OC)cc1 (stereo not given)	i
CCOC(=O)c1c(NC(=O)OC)sc2c1CCCC2	i
Cc1cccc(NC(=O)c2ccc(N(C)S(=O)(=O)c3ccccc3)cc2)c1C	i
COc1cc(Cl)c(S(=O)(=O)N2CCN(c3ccc(C)c(C)c3)CC2)cc1Cl	3%
COc1cc(S(=O)(=O)Nc2ccncc2)ccc1F	i
CC(NC(=O)C(F)(F)F)C(=O)Nc1ccc2c(c1)Cc1ccccc1-2 (stereo not given)	1%
S=C(Nc1ccccc1)N1CCC(Cc2ccccc2)CC1	5%
Cc1cc(C)cc(OCC(=O)Nc2ccc(C(=O)O)cc2)c1	i
COc1cccc(C2CC(=O)NC(SCC(=O)Nc3ccc(C)c(Cl)c3)=C2C#N)c1OC (stereo not given)	32%
COc1ccc(C(=O)Nc2ccc(Br)cn2)cc1[N+](=O)[O-]	i
COc1ccc(CN2CCN(S(=O)(=O)c3ccc4ccccc4c3)CC2)cc1	i
C=CCNc1oc(-c2ccc(OC)c(OC)c2)nc1C#N	0%
CCOC(=O)c1sc(NC(=O)c2ccc(CC)s2)nc1C	i
Cc1cccc(NC(=O)C(=O)Nc2cccc(C)n2)c1	i
Cc1cc(OC(C)C)c2c3c(c(=O)oc2c1)CCCC3	7%
COc1ccc(C(=O)Nc2cc(-c3nc4cc(C)cc(C)c4o3)ccc2C)cc1Br	21%
CNC(=O)c1[nH]cnc1C(=O)Nc1ccccc1OC	19%
COc1ccc(-c2c(C#N)c(N)nc3sc(C(N)=O)c(N)c23)cc1OC	i
Cc1ccccc1C(=O)N1CCN(CCNC(=O)C(=O)Nc2ccc(Br)cc2)CC1	i
CCC(=O)Nc1ccc(S(=O)(=O)N2CCCCC2)cc1OC	3%
COc1ccc(CNC(=O)COc2ccc(S(=O)(=O)NC(C)c3ccccc3)cc2)cc1 (stereo not given)	6%
CC(=O)CSc1nnc(-c2cc3ccccc3cc2O)n1Cc1ccccc1	i
CCc1ccc(N(CC(=O)Nc2cccc(C(F)(F)F)c2)S(C)(=O)=O)cc1	i
Cc1ccc(NC(=O)c2ccc(C#CC3(O)CCCCC3)cc2)cc1C	i
O=C(O)C1Cn2c(nc3c(c2=O)C2(CCCC2)Cc2ccccc2-3)S1 (stereo not given)	i
CCN1C(=O)c2cccc3c(NC(=O)c4cccc(Cl)c4)ccc1c23	3%
COC(=O)Cc1c(C)c2ccc(OCc3cc(C)ccc3C)cc2oc1=O	5%
Cc1ccc(CCc2nnc(SCC(=O)Nc3cc(Cl)ccc3Cl)n2-c2ccccc2)o1	u
Cc1ccc(C)c(OCC(=O)N2CCC(C)CC2)c1	i
CCOC(=O)C1CCN(C(=O)c2ccccc2-c2ccccc2)CC1	i
Cc1cc2c(cc1C)NC(c1ccccc1F)C1=C(CC(C)(C)CC1=O)N2 (stereo not given)	i
COc1ccc([N+](=O)[O-])cc1Nc1ncnc2ccc(Br)cc12	i
O=C(CN(Cc1ccc(F)cc1)S(=O)(=O)c1ccccc1)N1CCOCC1	i
COc1cccc(C(C)NC(=S)Nc2cccc(Cl)c2Cl)c1 (stereo not given)	1%
O=C(Nc1ccccc1[N+](=O)[O-])c1ccc(-c2cccc(C(F)(F)F)c2)o1	i

Looked up by structure from the entries so far, seven records:
SMILES	Mtb growth
COc1ccc([N+](=O)[O-])cc1Nc1ncnc2ccc(Br)cc12	i
CCOC(=O)C1CCN(C(=O)c2ccccc2-c2ccccc2)CC1	i
O=C(CN(Cc1ccc(F)cc1)S(=O)(=O)c1ccccc1)N1CCOCC1	i
CCN1C(=O)c2cccc3c(NC(=O)c4cccc(Cl)c4)ccc1c23	3%
O=C(Nc1ccccc1[N+](=O)[O-])c1ccc(-c2cccc(C(F)(F)F)c2)o1	i
Cc1ccc(C)c(OCC(=O)N2CCC(C)CC2)c1	i
COC(=O)Cc1c(C)c2ccc(OCc3cc(C)ccc3C)cc2oc1=O	5%

Some of the entries so far, with each value named:
Cc1ccc(CCc2nnc(SCC(=O)Nc3cc(Cl)ccc3Cl)n2-c2ccccc2)o1
- Mtb growth = u
Cc1ccc(C)c(OCC(=O)N2CCC(C)CC2)c1
- Mtb growth = i

Further results follow.
SMILES	Mtb growth
CCc1c(C)nc2c(C)cccc2c1SCC(=O)O	i
CC(=O)c1c(C)oc2ccc(N(C(=O)c3ccncc3)S(=O)(=O)c3ccc(F)cc3)cc12	i
O=C(Nc1ccccc1N1CCOCC1)c1cccc2c(Br)cccc12	i
O=[N+]([O-])c1ccccc1OCCCOc1ccc(Cl)c2cccnc12	u
CC(=O)c1cccc(NC(=O)CSc2nnnn2-c2ccccc2Cl)c1	i
COc1ccc(Cl)cc1NC(=O)Cn1cnc2sc3c(c2c1=O)CCC(C)C3 (stereo not given)	i
CCOc1ccc(N2CC(C(=O)NCCOC)CC2=O)cc1 (stereo not given)	i
Cc1cc(OCC(=O)NCc2ccccc2)cc(C)c1Br	i
Cc1cc(C)nc(Nc2n[nH]c(-c3ccc(C(C)(C)C)cc3)n2)n1	1%
Cc1cccc(C(C)C)c1NC(=O)c1ccccc1[N+](=O)[O-]	i
CCC(Sc1nnc2c3ccccc3n(C)c2n1)C(=O)Nc1nnc(C(F)(F)F)s1 (stereo not given)	i
CCOC(=O)C1=C(C)N(C)C(=O)NC1c1ccc(C)s1 (stereo not given)	i
CCOc1ccc(C2C=C(c3ccc(F)cc3)Nc3nnnn32)cc1 (stereo not given)	2%
CCC(CC)C(=O)Nc1cc(C(=O)OC)cc(C(=O)OC)c1	2%
Cc1ccc(C(=O)NCCc2ccc(Cl)cc2)o1	4%
Cc1cccc(NC(=O)c2cccc([N+](=O)[O-])c2)c1C	i
COc1ccc(NC(=O)Cn2c(C)c(C=O)c3ccccc32)cc1	34%
COc1ccccc1N1CCN(C(=O)C(C)Oc2cc(C)cc(C)c2)CC1 (stereo not given)	i
Cc1cccc(-n2c(C)nnc2SCC(=O)Nc2cccc(C(F)(F)F)c2)c1	0%
Cc1ccc(OCC(=O)Nc2ccc3c(c2)C(=O)NC3=O)cc1	i
CN(c1ccc(C(=O)Nc2ccc(Br)cc2)cc1)S(C)(=O)=O	i
COc1ccc(OCC(=O)N=Nc2c(O)[nH]c3c(C)cccc23)c(Br)c1	i
Cc1ccc(NC(=O)CSCc2nc3ccccc3[nH]2)cc1	i
CCc1ccccc1N(CC(=O)NCCSCc1c(Cl)cccc1Cl)S(C)(=O)=O	i
Cc1ccc(-n2c(C3CC3)n[nH]c2=S)c(C)c1	i
CNC(=O)CSc1nc(-c2ccccc2)cc(C(F)(F)F)c1C#N	i
CCCc1oc(C(=O)O)cc1CN	i
O=C(CSCC(=O)Nc1ccc2ccccc2c1)Nc1ccc([N+](=O)[O-])cc1	44%
CCNC(=S)N1CCN(C/C=C/c2ccccc2)CC1	3%
CCOc1cc([N+](=O)[O-])ccc1NC(=O)CC1Sc2ccccc2NC1=O (stereo not given)	2%

Given with each value named: entries from further up
> O=C(CSCC(=O)Nc1ccc2ccccc2c1)Nc1ccc([N+](=O)[O-])cc1
  Mtb growth: 44%

> CCNC(=S)N1CCN(C/C=C/c2ccccc2)CC1
  Mtb growth: 3%

Other compounds
SMILES	Mtb growth
COc1ccc(OCC(=O)Nc2ccc(Sc3ccc([N+](=O)[O-])cc3)cc2)cc1	i
CCC(Oc1ccccc1)C(=O)NCCN(C)C (stereo not given)	i
CC(=O)Nc1ccc(NC(=O)c2cc(C)cc(C)c2)cc1	i
CCCC(=O)Nc1sc(C(=O)NC2CCCCC2)c(C)c1C(=O)OCC	5%
CCOc1cccc(C(=O)Nc2nc(-c3ccc(F)cc3F)cs2)c1	i
CS(C)=C1C(=O)NC(=O)N(Cc2ccc(F)cc2)C1=O	i

High-throughput results: PubChem, Southern Research Institute
